# Screens from PubChem BioAssay.
# Mtb H37Rv: M. tuberculosis H37Rv growth inhibitors, H37Rv strain (AID 1626); M. tuberculosis H37Rv growth inhibition; higher % means a stronger effect; inhibition, % at 10 µM, or IC50 in µM where a hit was titrated; 0.95% of 220,000 active;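 active = confirmed in a dose series; inconclusive = inhibition above 80% but not taken into the dose series; inactive = below 80% or under 30% at every dose of the series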;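 note: bacteria incubated seven days before Alamar blue readout; 0% = bacteria only wells and 100% = bacteria with antibiotic wells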
# RecA intein inh: Mtb RecA intein splicing inhibition. P9WHJ3. cell-free RecA intein splicing, fluorescence. inhibition, %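 (about 9 µM by stock and volumes)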. 0.75% of 290,000 active. AID 2221; in the data active = inhibition above about 30%; inconclusive = no clear call, values can overlap the other calls;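 note: 0% = vehicle wells and 100% = reference inhibitor control wells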
# Target sequence (P9WHJ3 whole entry, looked up): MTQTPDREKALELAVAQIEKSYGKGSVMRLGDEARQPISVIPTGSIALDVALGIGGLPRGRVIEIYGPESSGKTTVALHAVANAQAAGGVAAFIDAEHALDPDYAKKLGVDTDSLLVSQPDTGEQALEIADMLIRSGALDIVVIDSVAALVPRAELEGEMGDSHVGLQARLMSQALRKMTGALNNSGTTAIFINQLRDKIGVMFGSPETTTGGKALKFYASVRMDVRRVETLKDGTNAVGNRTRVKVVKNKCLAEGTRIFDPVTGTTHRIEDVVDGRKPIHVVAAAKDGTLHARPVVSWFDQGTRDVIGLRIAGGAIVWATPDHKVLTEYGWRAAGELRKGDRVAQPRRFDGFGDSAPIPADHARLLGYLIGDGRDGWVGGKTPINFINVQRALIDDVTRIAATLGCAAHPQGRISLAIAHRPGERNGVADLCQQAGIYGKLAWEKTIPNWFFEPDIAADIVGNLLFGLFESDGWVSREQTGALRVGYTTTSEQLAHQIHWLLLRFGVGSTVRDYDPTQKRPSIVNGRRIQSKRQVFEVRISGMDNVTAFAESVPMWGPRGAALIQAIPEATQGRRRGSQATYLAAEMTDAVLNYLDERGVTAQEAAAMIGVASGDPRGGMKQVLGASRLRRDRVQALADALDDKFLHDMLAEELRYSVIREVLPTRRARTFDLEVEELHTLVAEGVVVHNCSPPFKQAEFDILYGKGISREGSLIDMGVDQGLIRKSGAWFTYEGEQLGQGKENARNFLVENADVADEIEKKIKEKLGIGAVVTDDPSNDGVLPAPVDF
# Mtb bLac sens: beta-lactam sensitization of Mtb H37Rv. M. tuberculosis H37Rv growth with meropenem, percent inhibition; hits of this screen are not shown here. inhibition, % at 25 µM. 0.27% of 330,000 active;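 active = about 74% or more and at least 40 points above the plate without the antibiotic, then above 30% in a dose series; inconclusive = first-round hits that could not be retested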;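 note: growth measured after seven days incubation then overnight dye step; 0% = bacteria only wells and 100% = bacteria with antibiotic; twin plates without the antibiotic show which effects depend on it; some results filed as inactive read as strong as hits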
# YopH PTP inh: YopH (Yersinia) phosphatase inhibition; fluorescence Ex485/Em525; 0.16% of 140,000 active; inhibition, %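 (about 10 µM by stock and volumes)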;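 active = inhibition of 50% or more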;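 note: controls were vehicle for no effect and minimum signal wells for full effect; inactives centre near -20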
# Arbovirus anti: blocks arbovirus infection. arbovirus infection cell-based antiviral screen. inhibition, % at 10 µM. 0.37% of 200,000 active. AID 1251;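 active = inhibition from about 30%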;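 note: bluetongue infection of BSR cells; cell survival read as ATP light after 72 h; 0% = infected wells without compound and 100% = uninfected wells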
# Arbovirus anti repeat: second read-out of Arbovirus anti, no call of its own (marks repeat the call); inhibition, %; measured here: 10K subset replicate screen; many hits read low in the repeat;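 first of two repeat runs on a subset; 0% = infected and 100% = uninfected wells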
# Active calls of the source: *; ? = inconclusive; · = no result given.
SMILES,Mtb H37Rv,RecA intein inh,Mtb bLac sens,YopH PTP inh,Arbovirus anti,others
CCC(C)NC(=O)Cn1c(=O)sc2ccccc21 (configuration not stated),0%,3.7,-6,·,10,
Cn1c(=O)cc(SCC(=O)NCC2CCCO2)c2ccc(Cl)cc21 (configuration not stated),2%,0.1,-1,-26,0,
CCOc1ccc(C(=O)N2CCn3c2nc2ccccc23)cc1,6%,0.4,8,·,0,
CCC(C(=O)NC1CCCCC1)n1c(SCc2cccc(C)c2)nc2ccncc21 (configuration not stated),6%,4.9,11,-14,3,
NS(=O)(=O)c1ccc(NC(=O)C2C3C=CC(C3)C2C(=O)O)cc1 (configuration not stated),-2%,-0.5,-3,·,0,
COc1ccc(-c2csc(NC(=O)CC(C)C)n2)cc1,8%,·,-1,-9,11,
COCCNc1ccc([N+](=O)[O-])cc1C(=O)NC1CCCc2ccccc21 (configuration not stated),·,2.1,-4,·,·,
O=C(O)c1ccc([N+](=O)[O-])c(CS(=O)(=O)c2ccc(Cl)cc2)c1,-2%,-2.6,-8,·,13,
CC(C)c1ccc(OCC(=O)NNC(=S)NC(=O)c2cccs2)c(Br)c1,·,0.7,88,·,·,
O=S(=O)(NCC(c1cccnc1)N1CCN(Cc2ccccc2)CC1)c1ccccc1 (configuration not stated),-1%,-1.1,-7,-30,4,Arbovirus anti repeat=4
CCN(CC)S(=O)(=O)c1ccc(NS(=O)(=O)CC23CCC(CC2=O)C3(C)C)cc1 (configuration not stated),-3%,1.2,-8,-3,6,
C(=N\c1c(-c2ccccc2)nc2n1CCS2)/c1ccccc1,4%,-1.5,81,7,-3,Arbovirus anti repeat=-3
CCCCc1nc2cc(C(=O)N3CCCC(OCCC)C3)ccc2o1 (configuration not stated),·,0.8,-1,·,·,
NNC(=O)COc1ccc2oc3c(c2c1)CCCC3,·,2.1,1,·,·,
Cc1ccccc1NC(=O)c1cccc(N2C(=O)C3CCCCC3C2=O)c1 (configuration not stated),·,0.2,-9,·,·,
O=C(Nc1ccsc1C(=O)O)c1ccccc1Cl,·,-1.3,-1,·,·,
CCC(CC)NC(=O)c1ccc(Cl)cc1,7%,-1.5,1,-14,10,
CCOc1ccccc1N(CC(=O)NC1CCCC1)C(=O)CNC(=O)c1cccs1,·,-0.7,3,·,·,
CCOC(=O)C1CCCN(CC(=O)Nc2c(C(=O)OC)[nH]c3ccc(Br)cc23)C1 (configuration not stated),5%,7.9,55,-21,-15,
O=C(c1ccc(S(=O)(=O)c2ccc(F)cc2)c([N+](=O)[O-])c1)N1CCCCCC1,0%,12,-6,-15,-12,

# Ordered by count of non-hydrogen atoms (highest first): part of the list above
SMILES,Mtb H37Rv,RecA intein inh,Mtb bLac sens,YopH PTP inh,Arbovirus anti,others
O=S(=O)(NCC(c1cccnc1)N1CCN(Cc2ccccc2)CC1)c1ccccc1 (configuration not stated),-1%,-1.1,-7,-30,4,Arbovirus anti repeat=4
CCN(CC)S(=O)(=O)c1ccc(NS(=O)(=O)CC23CCC(CC2=O)C3(C)C)cc1 (configuration not stated),-3%,1.2,-8,-3,6,
O=C(O)c1ccc([N+](=O)[O-])c(CS(=O)(=O)c2ccc(Cl)cc2)c1,-2%,-2.6,-8,·,13,

# The listing picks up with the four entries that preceded the break.
SMILES,Mtb H37Rv,RecA intein inh,Mtb bLac sens,YopH PTP inh,Arbovirus anti,others
CCC(CC)NC(=O)c1ccc(Cl)cc1,7%,-1.5,1,-14,10,
CCOc1ccccc1N(CC(=O)NC1CCCC1)C(=O)CNC(=O)c1cccs1,·,-0.7,3,·,·,
CCOC(=O)C1CCCN(CC(=O)Nc2c(C(=O)OC)[nH]c3ccc(Br)cc23)C1 (configuration not stated),5%,7.9,55,-21,-15,
O=C(c1ccc(S(=O)(=O)c2ccc(F)cc2)c([N+](=O)[O-])c1)N1CCCCCC1,0%,12,-6,-15,-12,
CCc1ccccc1NC(=O)CN(C)C(=O)CSc1nn(-c2ccc(F)cc2)c(=S)s1,-11%,-1.2,-7,-10,-4,
CCCN(CCC)S(=O)(=O)c1cc(Br)cc2c1N(C(=O)CC)CC2,0%,1.0,1,·,2,Arbovirus anti repeat=-4
CCN(CC)S(=O)(=O)c1cc(C(=O)Nc2cc(C)on2)ccc1Cl,·,-5.3,9,·,·,
Cc1ccc(C(=O)N/N=C(\CC(C)C)c2ccccc2)cc1,1%,3.5,-6,-29,2,
CCOC(=O)/C(=C\c1ccc(Cl)cc1)c1nc2sc(C)c(C)c2c(=O)[nH]1,9%,19,1,-16,-44,
COc1cccc(C2CC(c3ccc(C)cc3)Nc3nc(N)nn32)c1 (configuration not stated),-6%,-1.0,?,-32,-3,Arbovirus anti repeat=3
COc1ccc(-n2cc(C#N)c(=O)n(Cc3ccc(F)cc3)c2=O)cc1,-3%,-0.3,-8,·,-8,
O=C(NCc1ccccc1)c1ccc2nnsc2c1,-4%,3.7,-4,·,·,
COc1ccc(CNC(=O)CN2C(=O)NC(C)(c3ccc(C(C)(C)C)cc3)C2=O)cc1 (configuration not stated),·,2.0,3,·,·,
CCNC(=S)Nc1ccc(Cl)cc1,-2%,1.9,-1,-34,5,
COc1ccccc1-c1c(C#N)c(N)nc2c1CCc1ccccc1-2,9%,-2.3,-10,-17,1,
COC(=O)c1cnn(-c2ccccc2)c1N,1%,0.6,-7,·,·,
Cc1cc2c(cc1C)NC(c1ccccn1)C1=C(CC(C)(C)CC1=O)N2 (configuration not stated),3%,-2.8,-19,39,0,
O=C(Nc1ccc(Cc2ccncc2)cc1)C1CCC(N2C(=O)C3C4C=CC(C4)C3C2=O)CC1 (configuration not stated),-5%,2.6,32,-4,5,
COc1ccc(COc2ccccc2C(=O)NCc2ccccc2)cc1F,15%,6.5,3,10,5,
COc1cc2c(cc1OC)C(c1ccccc1)NC(C)(C)C2 (configuration not stated),·,-1.9,-3,·,·,
Cc1ccn2c(Nc3ccccc3C)c(-c3ccncc3)nc2c1,-2%,1.1,64,-29,-18,
O=C(c1sc2ccccc2c1Cl)N1CCN(c2ccccn2)CC1,·,4.0,-7,·,·,
CC(Oc1ccc2c3c(c(=O)oc2c1)CCC3)C(=O)NCCN1CCOCC1 (configuration not stated),·,0.2,3,·,·,
O=C(COC(=O)c1cccc(C(=O)OCC(=O)c2ccc(Br)cc2)n1)c1ccc(Br)cc1,-1%,-2.6,0,-23,7,

# Entries above containing a nitro group on carbon (three):
SMILES,Mtb H37Rv,RecA intein inh,Mtb bLac sens,YopH PTP inh,Arbovirus anti,others
COCCNc1ccc([N+](=O)[O-])cc1C(=O)NC1CCCc2ccccc21 (configuration not stated),·,2.1,-4,·,·,
O=C(O)c1ccc([N+](=O)[O-])c(CS(=O)(=O)c2ccc(Cl)cc2)c1,-2%,-2.6,-8,·,13,
O=C(c1ccc(S(=O)(=O)c2ccc(F)cc2)c([N+](=O)[O-])c1)N1CCCCCC1,0%,12,-6,-15,-12,

# The list goes on:
SMILES,Mtb H37Rv,RecA intein inh,Mtb bLac sens,YopH PTP inh,Arbovirus anti,others
CN(C)c1ccc(NS(=O)(=O)c2cccc(Cl)c2)cc1,9%,1.2,1,-10,-7,
Cc1ccsc1/C=N/N=C1\C(=O)Nc2ccccc21,4%,0.6,2,-16,-5,
Cc1ccc(C)c(N2CC(C(=O)Nc3nccs3)CC2=O)c1 (configuration not stated),·,0.1,7,·,·,
O=C(CN1C(=O)NC2(CCCCC2)C1=O)Nc1ccc2c(c1)CCC2,0%,0.4,4,·,2,
CCN1C(=S)N[C@@H](c2ccccc2)C(C(=O)OC)=C1C,·,2.3,-4,·,·,
Cc1ccc(S(=O)(=O)c2ccc(Cl)cc2)cc1S(=O)(=O)NC(C(=O)O)C(C)C (configuration not stated),-2%,1.1,-2,-31,2,
COc1ccc(-n2cc([N+](=O)[O-])c(=O)c3ccc(Cl)cc32)cc1,·,2.4,1,·,·,
O=C(Cn1c(=O)n2ncnc2c2c3c(sc21)CCCC3)c1ccccc1,1%,-0.3,?,-30,-11,
CC(=O)N1CCN(C(=S)NC(=O)C23CC4CC(CC(C4)C2)C3)CC1,9%,-2.7,0,·,5,
Cc1cc(-c2ccccc2)nc(N(C)NC(=O)c2ccc(Cl)cc2)c1S(C)(=O)=O,13%,-0.3,48,-26,0,
CCC(CC)C(=O)Nc1cccc(C(=O)Nc2nccs2)c1,4%,1.2,-16,-12,-3,
CCOc1ccccc1NC(=O)c1sc2nc(C)nc(N3CCOCC3)c2c1C,·,-3.7,11,·,·,
COc1ccc(OCC(=O)N2CCN(c3cccc(Cl)c3)CC2)cc1,·,5.0,-5,-18,6,
CN(C)CCCN(C(=O)c1sc2ccccc2c1Cl)c1nc2c(F)cccc2s1,1%,-0.3,-4,-30,5,
CCCCC(CC)CNC(=O)c1cc2ccccc2c(=O)o1 (configuration not stated),-2%,-2.9,6,-8,-2,
Cc1cc(C(F)(F)F)nn1CC(=O)N(C)C1CCCCC1,2%,-0.1,-7,1,·,
CCN(CC(=O)Nc1c(C(=O)OC)[nH]c2ccccc12)c1ccc2c(c1)OCO2,-4%,-4.8,22,-13,-5,
CCC1CCCCN1CCCNC(=O)c1ccc(/C=C2/Sc3ccccc3NC2=O)cc1 (configuration not stated),·,-5.4,75,·,·,
CCN(CC)S(=O)(=O)c1ccc(N2CCN(c3ccccc3OC)CC2)c(N)c1,·,0.1,11,·,·,
COc1ccc(-c2cc(C(=O)O)c(C)o2)cc1OC,5%,0.2,6,-39,3,
COC(=O)/C=C/C(=O)N1CCN(c2ccccc2)CC1,-1%,1.4,-5,-25,-3,
COC(=O)CCn1c(C)cc(C(=O)COc2ccccc2C(N)=O)c1C,1.6µM*,1.3,100,·,17,
COc1ccc(-c2csc(NC(=O)c3ccc(N4C(=O)CCC4=O)cc3)n2)cc1,2%,-3.2,6,·,1,
COC(=O)C1CCN(c2cc(=O)n(C3CCCCC3)c(=O)[nH]2)CC1,0%,0.9,-2,-39,-6,
O=S(=O)(c1cccs1)N1CCC2(CC1)OCCO2,·,18,6,·,·,
COc1ccc(S(=O)(=O)Nc2ccc(S(=O)(=O)N3CCOCC3)cc2)cc1,-7%,-0.4,-6,-31,6,Arbovirus anti repeat=2
CC(C)c1ccc(N(CC(=O)NCC2CCCO2)C(=O)Cn2nnc(-c3cccs3)n2)cc1 (configuration not stated),-6%,1.9,-6,·,-1,
COc1ccc(C(=O)NC(C(=O)NCC2CCCO2)C(C)C)cc1 (configuration not stated),-5%,-0.5,-10,·,16,

# An excerpt, so the mix of outcomes need not match the whole.
